High-throughput results: PubChem, National Center for Advancing Translational Sciences (NCATS)
HPGD block: inhibitors of human 15-hydroxyprostaglandin dehydrogenase (HPGD) | 4.3% of 150,000 active | Potency, µM, inactives show at the top dose activity change, negative = inhibition, most hits filed as inhibitors | AID 894 | P15428 | purified HPGD, NADH fluorescence kinetic, PGE2 substrate; active = well fitted inhibition curve with a large enough effect (not every such curve was filed as active); inconclusive = small, poorly fitted or top-dose-only effect, or another doubt; inactive = no such curve, though single readings can be large or run the other way;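 further: top concentration of the series not given in the record; plate controls included wells without enzyme; inactives centre near -10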
Target sequence (P15428 whole entry, looked up): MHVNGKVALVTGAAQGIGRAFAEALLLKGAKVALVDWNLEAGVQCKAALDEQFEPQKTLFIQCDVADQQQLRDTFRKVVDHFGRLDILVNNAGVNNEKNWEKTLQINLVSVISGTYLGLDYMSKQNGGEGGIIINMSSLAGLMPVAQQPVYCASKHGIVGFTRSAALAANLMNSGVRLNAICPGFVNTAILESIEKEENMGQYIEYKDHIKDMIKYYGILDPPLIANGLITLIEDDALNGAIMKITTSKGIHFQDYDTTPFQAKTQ
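20 nM HPGD preincubated 15 min at room temperature with compound in 50 mM Tris-HCl pH 8, 0.01% Tween 20. Started with 1 mM NAD+ and 30 uM prostaglandin E2; NADH fluorescence (360/450 nm) read 5 times over 30-s intervals, last minus first.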
* = called active by the depositor; ? = inconclusive. On the % scale 0 is the no-effect control and ±100 the full control effect; potency means the concentration at half of the fitted maximal effect. The list is partial; count on the stated rates, not on these rows.

HPGD block	canonical_smiles
-27.7%	Cc1ccc(C(=O)NCCNc2ccc([N+](=O)[O-])cc2C(F)(F)F)cc1
-12.3%	CCOC(=O)c1ccccc1NC(=O)Cn1c(-c2nonc2N)nc2ccccc21
-22.2%	CCOc1ccc(/C=N/NC(=O)c2ccc(Cn3cc([N+](=O)[O-])cn3)o2)cc1
-27.6%	O=C(c1cccc(F)c1)N1CCC[C@@]2(CCN(C(c3ccccc3)c3ccccc3)C2)C1
-9.6%	COC(=O)[C@H](C)NC(=O)Nc1cccc(C)c1
4.3%	Cc1ccccc1-n1c(=O)cc(N2CCC3(CC2)OCCO3)[nH]c1=O
-10.4%	CCCCC(CC)CNC(=O)/C=C/c1ccc(F)cc1 (configuration not stated)
-18.1%	CCN(CC)S(=O)(=O)c1ccc(C)c(NC(=S)NNC(=O)C2CC2)c1
-18.2%	Cc1nc2c(-c3ccccc3)c(C)nn2c(C)c1CCC(=O)O
-6.5%	O=c1cc(CSc2nnc(-c3cccs3)n2Cc2ccccc2)nc2sc3ccccc3n12
-5.4%	CC(CNc1ccccc1O)C(=O)O (configuration not stated)
2.82µM*	O=c1[nH]c(-c2ccccc2O)nc2ccccc12

HPGD block	canonical_smiles
-9.8%	C=CCN1C(=O)[C@]2(c3ccccc31)C1CCCC=C1C(C#N)=C(N)C2(C#N)C#N (some centres not stated)
?	N=C(N)SCc1nc2ccccc2c(=O)n1-c1ccccc1
-8.8%	COc1ccc(S(=O)(=O)N2CCN(c3nc4ccccc4nc3-n3nc(C)cc3C)CC2)cc1
-1.9%	O=C(Cn1nc(-c2ccc3c(c2)OCCO3)ccc1=O)Nc1ccc(N2CCOCC2)cc1
-17.0%	CC(C)c1ccc(NC(=O)C(c2ccccc2)N2CCN(C=O)CC2)cc1 (configuration not stated)
-23.9%	Cc1ncsc1CCSc1nc2ccccc2c(=O)n1C
-22.4%	CCCCOCCCNC(=O)c1cccc(OC)c1
-15.4%	CC(=O)NC1=NN(C(C)=O)C(C)(c2ccccc2)S1 (configuration not stated)
?	Cc1ccc(NC(=O)CSc2ncc(-c3ccccc3)n2C(=O)c2ccccc2)cc1
-7.2%	CCC1CCCCN1CCCNC(=O)C1CCC(Cn2c(=O)[nH]c3ccccc3c2=O)CC1 (configuration not stated)
-3.2%	CCC(C)N1CC(C(=O)O)CC1=O (configuration not stated)
-10.2%	COc1ccccc1N1CCN(C(CNS(=O)(=O)c2cc(F)ccc2F)c2cccnc2)CC1 (configuration not stated)

Overlap with the part before: 3 entries, then new ones.
HPGD block	canonical_smiles
-7.2%	CCC1CCCCN1CCCNC(=O)C1CCC(Cn2c(=O)[nH]c3ccccc3c2=O)CC1 (configuration not stated)
-3.2%	CCC(C)N1CC(C(=O)O)CC1=O (configuration not stated)
-10.2%	COc1ccccc1N1CCN(C(CNS(=O)(=O)c2cc(F)ccc2F)c2cccnc2)CC1 (configuration not stated)
-6.1%	COc1ccc(Cn2nnnc2C(c2ccc(C)cc2)N2CCN(C3CCCC3)CC2)cc1 (configuration not stated)
?	CCCCN(C)Cc1c(C)[nH]c2ccc(OCC)cc2c1=O
-13.8%	C=CCSc1nnc2c(n1)OC(c1ccco1)Nc1ccccc1-2 (configuration not stated)
-9.2%	O=C(Cc1cccs1)N1CCN(c2ccc(F)cc2)CC1
-15.1%	COc1ccc(CCC(=O)Nc2ccccc2C(F)(F)F)cc1
-28.0%	O=C(NCc1ccco1)c1cc(-c2cccnc2)nc2ccc(Cl)cc12
-3.1%	CCN(CC)S(=O)(=O)c1ccc(NC(=O)CN(c2ccc(OC)cc2OC)S(C)(=O)=O)cc1
?	Cc1ccccc1NS(=O)(=O)c1cccc(-c2nnc(-c3ccccc3)o2)c1
?	O=C(Oc1ccc2c(-c3ccccc3)cc(=O)oc2c1)C1CCCCC1
-2.3%	O=C(CN1C(=O)c2ccccc2S1(=O)=O)Nc1ccc(S(=O)(=O)N2CCCCCC2)cc1
-14.0%	CCc1c(C(=O)c2ccc(Cl)cc2)oc2c(C)c3oc(=O)cc(C)c3cc12
20µM*	O=C(c1ccccc1)c1cc(F)c(N2CCOCC2)cc1Cl

Laid out differently: 4 of the compounds above
CCOc1ccc(/C=N/NC(=O)c2ccc(Cn3cc([N+](=O)[O-])cn3)o2)cc1
  HPGD block = -22.2%
O=C(c1cccc(F)c1)N1CCC[C@@]2(CCN(C(c3ccccc3)c3ccccc3)C2)C1
  HPGD block = -27.6%
COC(=O)[C@H](C)NC(=O)Nc1cccc(C)c1
  HPGD block = -9.6%
Cc1ccccc1-n1c(=O)cc(N2CCC3(CC2)OCCO3)[nH]c1=O
  HPGD block = 4.3%

The results go on.
HPGD block	canonical_smiles
-6.6%	CCN(CC(=O)NCCc1ccc(S(N)(=O)=O)cc1)Cc1nc2ccccc2c(=O)[nH]1
3.8%	CCC(C)NS(=O)(=O)c1ccc(OCC(=O)Nc2ccc(F)cc2F)cc1 (configuration not stated)
31.6µM*	Cc1cc(=O)[nH]c(N=N/C(=N/Nc2ccc(O)cc2)c2ccccc2)n1
-2.7%	COc1ccccc1N1CCN(Cc2nnnn2CCc2ccccc2)CC1
-13.4%	O=c1c2ccccc2nc(N/N=C/c2ccccc2)n1O
-22.9%	Cc1cc(=O)oc2c(O)c(O)ccc12
-17.2%	O=c1[nH][nH]c(=O)c2cc([N+](=O)[O-])ccc12
-12.9%	Cc1oc2c(CN(C)C)c(O)ccc2c(=O)c1-c1ccc2ccccc2n1
-6.7%	Cc1ccc(N2C(=O)NC3(CCCCC3)C2=O)cc1
-2.8%	OCCN1CCN(Cc2cccc(Oc3ccc(Cl)cc3)c2)CC1
?	COc1ccc(/C=N/N=C2/NC(=O)C(CC(=O)O)S2)cc1OCc1ccc(Cl)cc1 (configuration not stated)
-15.4%	CS(=O)(=O)NCCOc1ccc(S(=O)(=O)N2CCCc3ccccc32)cc1

HPGD block	canonical_smiles
-17.8%	Cc1ccc(-n2c(C)nnc2SCC(=O)Nc2ccccc2)cc1
-2.9%	COc1cccc(C(C(=O)NC2CCCC2)N(Cc2ccco2)C(=O)c2ccco2)c1OC (configuration not stated)
-8.9%	COc1ccccc1N1CCN(S(=O)(=O)c2cccs2)CC1
-9.8%	Cc1ccc(Cl)cc1NC(=O)CC1NCCNC1=O (configuration not stated)
-7.6%	Cc1ccc(-c2[nH]nc3c2C(c2ccsc2)C(C#N)=C(N)O3)cc1 (configuration not stated)
?	CN1c2cccc3cccc(c23)N(C)C1(C)C
-15.5%	Nc1nonc1-c1noc(CCCOc2ccc(Cl)cc2Cl)n1
1.6%	Cc1cc(N)n(-c2ccccc2)n1
10µM*	COc1cc(OC)c(C2CC(=O)N3CN(c4ccccc4)CSC3=C2C#N)cc1OC (configuration not stated)
-1.8%	CC(C)CC(C(=O)NCc1ccccn1)N1C(=O)c2ccccc2C1=O (configuration not stated)
-16.3%	COc1ccccc1-c1nc(SCc2ccccn2)n[nH]1
-7.9%	CC1CCCC(NC(=O)C2CCCN2S(=O)(=O)c2cccc3nsnc23)C1C (configuration not stated)

Reprinted at random: two records from the list, in no set order.
HPGD block	canonical_smiles
?	CN1c2cccc3cccc(c23)N(C)C1(C)C
-17.8%	Cc1ccc(-n2c(C)nnc2SCC(=O)Nc2ccccc2)cc1

(further entries)
HPGD block	canonical_smiles
-0.9%	O=C(NCCCn1ccnc1)c1cccc(S(=O)(=O)N2CCCCCC2)c1
-14.6%	CCCCOc1ccc(C(=O)Nc2ccc(N3CCN(C(=O)C(C)C)CC3)cc2)cc1
-15.8%	CS(=O)(=O)N(Cc1ccc(C(=O)NCCSc2ccccn2)cc1)c1ccccc1
3.6%	CCCOC(=O)c1c(-c2ccccc2)nc(CC)c(C(=O)SCC)c1CCC
-8.3%	COc1ccc2c(c1)C(=O)[C@H](OC(=O)Nc1ccc(OC(F)F)cc1)[C@@H](c1ccc(OC)c(Br)c1)O2
-18.5%	Cc1ccc(N(Cc2ccc(C(=O)NN=C3CCN(C)CC3)cc2)S(C)(=O)=O)cc1C
0.3%	Cc1ccc(S(=O)(=O)Nc2ccc3c(c2)c2c(n3S(=O)(=O)c3ccc(C)cc3)CCCC2=O)cc1
-2.9%	Cc1ccc(Cl)cc1NC(=O)N[C@@H](C)C(=O)O
-13.5%	COc1cccc(OC)c1NC(=O)CN1CCC(NC(=O)c2cccc(F)c2)CC1
-11.9%	COc1ccc(CNC(=O)COC(=O)c2c(-c3c(F)cccc3Cl)noc2C)cc1OC
-1.2%	O=C1CCc2cc(S(=O)(=O)NC(Cc3ccccc3)C(=O)NCCC3=CCCCC3)ccc2N1 (configuration not stated)
-19.7%	Cc1cc(=O)[nH]c(-n2[nH]c3c(c2=O)CCCC3)n1

HPGD block	canonical_smiles
0.5%	CC(=O)Nc1cc(S(=O)(=O)Nc2ccc(C)cc2)c(C)cc1C
?	Cc1cc(N2CCN(c3ccccc3)CC2)n2cc(-c3ccccc3)nc2n1
-2.2%	Cc1ccc2cccnc2c1
-3.4%	COC(=O)CCCCCC(CCC(=O)OC)NC(C)=O (configuration not stated)
0.6%	Cc1ccc(C(CC(=O)O)Nc2nc(N3CCOCC3)nc(N3CCOCC3)n2)cc1 (configuration not stated)
-3.6%	Cc1cccc(OCC(=O)N2CCC(c3ccccc3)C2)c1 (configuration not stated)
-4.4%	COCCNC(=S)NNC(=O)c1ccco1
-1.3%	CC(=O)Nc1ccc2c(c1)OCCOCCOc1cc(NC(C)=O)ccc1OCCOCCOCCO2
-29.8%	COc1ccc(S(=O)(=O)NNC(=O)c2cc3c4ccccc4n(C)c3s2)cc1
?	Cc1ccc(NS(=O)(=O)c2cc(NC(=O)c3cc4c(s3)CCCC4)ccc2C)c(C)c1
4.1%	COc1ccc(NC(=O)C23CC4CC(C2)CC(n2cnc(Br)n2)(C4)C3)c(C)c1
-14.8%	CC(=O)NCCn1c(SCC(=O)NCC2CCCO2)nc2ccccc2c1=O (configuration not stated)

HPGD block	canonical_smiles
-19.7%	CN(C)CCCNC(=O)c1cc(S(=O)(=O)N2CCOCC2)ccc1F
-19.2%	N#C/C(=C\c1ccc(N2CCOCC2)o1)C(=O)N1CCOCC1
-9.7%	COc1ccc(S(=O)(=O)N2CCC(C(=O)NCC3CCCO3)CC2)cc1 (configuration not stated)
31.6µM*	O=C(CCl)N1c2ccccc2OCC1c1ccccc1 (configuration not stated)
-28.5%	Clc1cccc(N/N=C/c2ccc(N3CCOCC3)s2)c1
-5.7%	O=C(O)c1c[nH]ccc1=O
-4.2%	Cc1cc(NC(=O)CSc2nnc3c(C)cc4cc(C)c(C)cc4n23)no1
-8.8%	COCCn1c(=S)[nH]c2cc(OC)c(OC)cc2c1=O
-9.7%	CC(NC(=O)c1ccc2c(c1)OCCO2)C(=O)O (configuration not stated)
-5.1%	Cn1nnnc1SCC(=O)Nc1ccc(Cl)cc1Cl
-18.9%	Cc1cccc(C)c1NC(=O)CNC(=O)CCC(=O)c1cccs1
-19.4%	CCOC(=O)C1=C(C)NC(=O)NC1c1ccc(OCC(=O)Nc2ccccc2)c(OC)c1 (configuration not stated)

HPGD block	canonical_smiles
?	COc1ccccc1C(=O)NC(C)c1ccccc1 (configuration not stated)
-5.9%	CCOC(CCn1c(SCc2ccc([N+](=O)[O-])cc2)nc2ccccc2c1=O)OCC
0.4%	COc1cc(NC(C)C(=O)N2CC(C)OC(C)C2)cc(OC)c1 (configuration not stated)
-16.1%	CCC(=O)/C=C1\Sc2ccccc2N1CC
?	CC12CCC(C(=O)N(NC(=O)c3cc(Cl)ccc3O)C1=O)C2(C)C (configuration not stated)
-7.3%	Cc1cc(OC(=O)C(c2ccccc2)c2ccccc2)c([N+](=O)[O-])c(=O)[nH]1
-1.7%	Cc1ccc(NC(=O)CCn2cnc3cc(C)c(C)cc32)cc1
1.8%	NC(=O)OC[C@H](O)COc1ccc(Cl)cc1
-27.3%	O=S(=O)(c1ccc(Cl)c(NC(=S)N/N=C/c2ccc(O)cc2)c1)N1CCOCC1
-9.9%	C=C(C)Cn1c(SCC(=O)N/N=C/c2cccc(O)c2)nc2ccccc2c1=O
-4.8%	Cc1nnc(SCC(=O)Nc2ncc3c(n2)CCCC3=O)s1
-11.8%	COc1ccccc1-c1cncnc1NCCN1CCOCC1

HPGD block	canonical_smiles
-9.9%	CC(C)=CC(=O)Nc1ccccc1Br
-0.6%	Cn1c(CCN2CCCCC2)nc2cc(NS(=O)(=O)c3ccc(F)cc3)ccc21
?	S=C(NCCc1ccccc1)NCc1cccs1
-1.8%	O=C(Nc1nc(-c2ccc(Cl)cc2)cs1)NC1CCCCC1
-0.8%	COc1ccc2c(c1)c1c(n2C(C)=O)C(OC(C)=O)=NCC1
?	CCOC(=O)c1cc(-c2ccccc2)sc1NC(=O)c1ccc(OC)c(OC)c1
-7.8%	CCOC(=O)c1c(NC(=O)c2ccc(N3CCOCC3)c([N+](=O)[O-])c2)sc(C)c1C
-8.6%	Cc1cc(OC(=O)c2cccs2)ccc1C(C)C
?	CCOc1ccc(S(=O)(=O)NCC2CCCO2)c2cccnc12 (configuration not stated)
-21.5%	CCOC(=O)CSc1nc2c(sc3ccccc32)c(=O)n1CCCN1CCOCC1
-5.5%	O=C1c2ccccc2CCC12N=NCC2c1ccc(Cl)cc1 (configuration not stated)
?	Cc1nc(N2CCN(C(=O)COc3ccccc3)CC2)c2c(C)c(C)sc2n1

HPGD block	canonical_smiles
-6.6%	CCCCCOc1ccc(Br)cc1CSC(=N)N
-2.4%	CSc1c(-c2ccccc2)nc2ccccc2c1C(=O)O
-18.2%	Cc1[nH]cnc1CSCCN
?	CC1(C)Cc2nc3sc4c(=O)[nH]cnc4c3cc2CS1
-21.7%	Cc1cc(S(=O)(=O)NC2CCCCC2)ccc1OCC(=O)NCc1cccnc1
?	CC1=CC(c2ccccc2)n2nc(N3C(=O)CCC3=O)nc2N1 (configuration not stated)
?	COc1ccccc1NC(=O)c1oc2ccc(C)cc2c1C
